Marburg entry inh – Marburg virus entry inhibition; Marburg virus pseudotyped entry inhibition, cell reporter; control for the full effect not named in the record; about a third of the inactives were read at about 46 µM; 1.8% of 300,000 active; Potency, µM (top dose mostly 37.8 µM), for the others: at the highest dose activity change, negative = inhibition, usual class: inhibitors; active = well fitted inhibition curve with a large enough effect; inconclusive = small, poorly fitted or top-dose-only effect, or effect the other way; inactive = flat fitted curve, though single readings scatter; tested in HEK293 cells; about a fifth of its hits are not listed in these tables; also: % is scaled to controls: 0 for no effect and ±100 for the full control effect; luciferase read-out
Cruzain noTriton – blocks cruzain activity in detergent-free assay; P25779; purified cruzain, Z-FR-AMC fluorescence, no detergent; Potency, µM, for inactives: max response, negative = inhibition, hits mostly inhibitors; 2.3% of 200,000 active;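 also: plate controls were enzyme without inhibitor for no effect and buffer without enzyme for full effect; nearly all actives have a fitted effect of over 40% in size; top concentration of the series not given in the record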
Target sequence (P25779 123-467 limits assumed): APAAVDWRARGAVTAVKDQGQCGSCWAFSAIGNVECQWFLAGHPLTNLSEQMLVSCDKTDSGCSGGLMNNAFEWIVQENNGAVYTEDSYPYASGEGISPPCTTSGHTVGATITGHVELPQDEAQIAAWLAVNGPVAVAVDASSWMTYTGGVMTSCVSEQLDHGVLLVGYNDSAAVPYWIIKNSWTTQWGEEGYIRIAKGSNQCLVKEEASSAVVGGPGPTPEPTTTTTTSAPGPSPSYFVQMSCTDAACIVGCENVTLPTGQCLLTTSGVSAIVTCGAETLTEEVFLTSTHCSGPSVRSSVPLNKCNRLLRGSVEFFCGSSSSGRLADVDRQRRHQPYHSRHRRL
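Detergent-free condition (0.00005% Triton X-100) in acetate buffer pH 5.5 with DTT. 1.5 nM enzyme and compound were pre-mixed 15 min, then 2 uM Z-FR-AMC substrate added; reaction progress from fluorescence change between first and third reads (60 s).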
SARS PLpro yeast – inhibitors of SARS-CoV papain-like protease in yeast. 0.19% of 330,000 active. S. cerevisiae expressing SARS-CoV PLpro, growth rescue; control for the full effect not named in the record. Potency, µM (top dose mostly 32.9 µM), for inactives: at the highest dose activity, positive = growth rescue; active means well fitted rising curve with a large enough effect; inconclusive means small, poorly fitted or top-dose-only effect; inactive means no such curve, though single readings can be large or run the other way; also: 0% is about no effect; nearly all actives have a fitted effect of over 55% in size; growth read by luminescence after 48 h
NS1 inh – inhibitors of influenza NS1 protein function; S. cerevisiae slowed by influenza A NS1, growth recovery by OD600; Potency, µM (doses to about 46.1 µM), inactives show at the highest dose activity, positive = more growth; 0.4% of 270,000 active; AID 2326; active means well fitted rising curve with a large enough effect; inconclusive means small, poorly fitted or top-dose-only effect; inactive means no such curve, though single readings can be large or run the other way; also: nearly all actives have a fitted effect of over 50% in size
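In this qHTS, NS1 from influenza A is expressed in budding yeast, where it slows growth. Cells are switched from glucose to 2% galactose medium (pH 6.0, -URA), treated with compound, and growth recovery is read at OD600.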
RE007 growth inh – less growth of the S. pombe RE007 Vpr strain; Potency, µM (highest dose often 92.2 µM), without a hit: at the top dose activity change, negative = less growth; S. pombe RE007 Vpr strain, BacTiter-Glo ATP luminescence, 24 h; control for the full effect not named in the record; 0.21% of 360,000 active; AID 651644; active = well fitted falling curve with a large enough effect; inconclusive = small, poorly fitted or top-dose-only effect; inactive = no such curve, though single readings can be large or run the other way;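 also: % is scaled to controls: 0 for no effect and ±100 for the full control effect; nearly all actives have a fitted effect of over 50% in size; the assay follows cell death caused by Vpr and the record does not say whether a fall means rescue or toxicity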
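Fission yeast strain RE007, carrying one chromosomally integrated HIV-1 vpr copy, was seeded at OD 0.01 in PMG+AL medium with 23 nL pinned compound. After 24 h at 30 °C and 99% humidity, viability was read by BacTiter-Glo luminescence.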
2A StopGo – FMDV 2A StopGo reporter, luciferase signal. human cells with a luciferase reporter of 2A StopGo recoding; control for the full effect not named in the record. Potency, µM (top dose mostly 57.9 µM), inactives show at the highest dose signal change, negative = less light. 1.2% of 410,000 active; active = well fitted falling curve with a large enough effect; inconclusive = small, poorly fitted or top-dose-only effect; inactive = no such curve, though single readings can be large or run the other way; tested in HEK293T cells; also: % is scaled to controls: 0 for no effect and ±100 for the full control effect; nearly all actives have a fitted effect of over 45% in size; luciferase light after 4 h
Cruzain Triton – cruzain (T. cruzi) inhibition with detergent; P25779; purified cruzain, Z-FR-AMC fluorescence, 0.01% Triton; Potency, µM, for the others: max response, negative = inhibition, most hits filed as inhibitors; 0.43% of 200,000 active; AID 1478;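 also: plate controls were neutral wells for no effect and buffer without enzyme for full effect; nearly all actives have a fitted effect of over 40% in size; top concentration of the series not given in the record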
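In this qHTS format, compounds are incubated with 1.5 nM cruzain for 15 min at room temperature before 2 uM Z-FR-AMC is added. Release of AMC is followed at 360/450 nm, and progress is taken as the 60 s fluorescence difference.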
LASV entry inh – blocks Lassa virus binding to or entry into cells | Lassa virus pseudotype entry inhibition, cell reporter; control for the full effect not named in the record | Potency, µM (highest dose often 37.9 µM), for inactives: at the top dose activity change, negative = inhibition, actives largely listed as inhibitors | 1.2% of 300,000 active | AID 540256; active means well fitted inhibition curve with a large enough effect; inconclusive means small, poorly fitted or top-dose-only effect, or effect the other way; inactive means flat fitted curve, though single readings scatter; tested in HEK293 cells; also: % is scaled to controls: 0 for no effect and ±100 for the full control effect; nearly all actives have a fitted effect of over 50% in size; luciferase read-out
An asterisk follows results filed as active; u = inconclusive; x = no result given; & = joins results of further samples; [ ] = another dose, or the depositor's remark. Unless noted, calls follow the shape of the dose curve; as a rule, active = well fitted curve in the direction sought with a large enough effect; inconclusive = small, poorly fitted or top-dose-only effect, or another doubt; inactive = no such curve, though single readings can be large; an effect the other way counts as inactive or inconclusive. Potency is read from the fitted curve at half-maximal effect.

1	CSCCC1NC(=O)NC1=O (centres undefined)
2	O=c1[nH]c(=O)n(Cc2ccco2)c(O)c1C=NCc1ccc2c(c1)OCO2
3	COc1ccc(Cl)cc1NC(=O)C(C)NC(c1ccccc1)c1ccccc1 (centres undefined)
4	COC(=O)c1nc(NC(=O)C(C)(C)C)n[nH]1
5	CCCCOC(=O)c1ccc(NC(=O)C(=O)CC(=O)c2ccc(OC)cc2)cc1
6	COc1cccc(NC(=O)c2sc3nc(N4CCOCC4)c4c(c3c2N)CCCC4)c1
7	Cc1nc2ccc(S(=O)(=O)N(C)CC(=O)Nc3cccc(C(F)(F)F)c3)cc2s1
8	CN(C)S(=O)(=O)c1ccc(Cl)c(NC(=O)COC(=O)c2ccc3c(c2)NC(=O)CS3)c1
assay / entry	1	2	3	4	5	6	7	8
Marburg entry inh	10%	0%&0%	-13%	9%	-13%[46.1 µM]	x	-19%[46.1 µM]	x
RE007 growth inh	-11%	-2%	-1%	-6%	-4%	2%	x	-18%
LASV entry inh	-3%	-9%	-2%	13%	1%	x	6%[46.1 µM]	x
Cruzain Triton	6.4%	3.8%	-5.8%	11%	x	x	-6.1%	x
SARS PLpro yeast	3%	5%	12%	3%	0%	-5%	x	0%
NS1 inh	2%	9%	-7%	-4%	7%	28%	x	1%
Cruzain noTriton	-15%	-3%	-3%	-12%	x	x	5%	x
2A StopGo	-11%	0%	0%	x	-2%	0%	u	-16%

9	COc1cc2c(cc1OC)CN(CC(=O)Nc1ccc(S(=O)(=O)N3CCCC3)cc1)CC2
10	COc1cccc2cc(C(=O)Nc3ccc(S(=O)(=O)NCC4CCCO4)cc3)c(=O)oc12 (centres undefined)
11	Cc1c(C=O)c2ccccn2c1C(=O)c1cccc([N+](=O)[O-])c1
12	Cc1cc(C)c(S(=O)(=O)n2c([N+](=O)[O-])cnc2C)c(C)c1
13	Cc1ccccc1OCC(=O)NC(Cc1c[nH]c2ccccc12)C(=O)O (centres undefined)
14	O=C(O)c1nc(-c2ccccc2)n(-c2cccc(C(F)(F)F)c2)n1
15	CCCC(=O)Nc1nnc(CC(=O)OCC)s1
16	O=C(Nc1nnc(-c2ccc(F)cc2)s1)C1CCN(S(=O)(=O)c2ccc(Cl)cc2)CC1
assay / entry	9	10	11	12	13	14	15	16
Marburg entry inh	x	5%[46.1 µM]	-3%	28%	u	27%[46.1 µM]	-1%	1%
RE007 growth inh	-9%	0%	2%	-1%	3%	9%	13%	5%
LASV entry inh	x	-18%	-21%	4%	7%	u	-2%	0%
Cruzain Triton	x	x	x	-1.1%	x	x	0.7%	-2.6%
SARS PLpro yeast	3%	1%	2%	22%	0%	1%	2%	14%
NS1 inh	-7%	-1%	x	-1%	-8%	x	2%	1%
Cruzain noTriton	x	x	x	-7%	x	x	4%	u
2A StopGo	-11%	32%[activator]	-25%	-15%	-1%	11%	-28%	3%

5 of the compounds above, bar-delimited:
No. | compound | Marburg entry inh | RE007 growth inh | LASV entry inh | Cruzain Triton | SARS PLpro yeast | NS1 inh | Cruzain noTriton | 2A StopGo
13 | Cc1ccccc1OCC(=O)NC(Cc1c[nH]c2ccccc12)C(=O)O (centres undefined) | u | 3% | 7% | x | 0% | -8% | x | -1%
11 | Cc1c(C=O)c2ccccn2c1C(=O)c1cccc([N+](=O)[O-])c1 | -3% | 2% | -21% | x | 2% | x | x | -25%
12 | Cc1cc(C)c(S(=O)(=O)n2c([N+](=O)[O-])cnc2C)c(C)c1 | 28% | -1% | 4% | -1.1% | 22% | -1% | -7% | -15%
9 | COc1cc2c(cc1OC)CN(CC(=O)Nc1ccc(S(=O)(=O)N3CCCC3)cc1)CC2 | x | -9% | x | x | 3% | -7% | x | -11%
15 | CCCC(=O)Nc1nnc(CC(=O)OCC)s1 | -1% | 13% | -2% | 0.7% | 2% | 2% | 4% | -28%

The list continues.
17	CCn1cnc2cc(NC(=O)c3ccc(C)cc3)ccc21
18	CCN(CC)C(=S)Oc1c(Cl)cccc1Cl
19	C#CCNC(=O)C1=C[C@H](c2coc3ccccc3c2=O)C[C@H](OCCCCO)O1
20	CNC(=O)C1CCN(S(=O)(=O)c2c(C)noc2/C=C/c2cccc(OC)c2)CC1
21	CCn1cc(C(=O)N2CCN(c3ccc(C)cc3)C(C)C2)c(=O)c2cc(S(=O)(=O)N3CCCC3)ccc21 (centres undefined)
22	Cc1nc(-c2ccccn2)nc(SCC(=O)c2ccccc2)c1Cl
23	N#Cc1nc(-c2ccc(OCc3ccc(Cl)cc3)cc2)oc1NCc1cccnc1
24	Cc1ccc(/C=C/C(=O)O)cc1S(=O)(=O)Nc1ccccc1C(=O)O
assay / entry	17	18	19	20	21	22	23	24
Marburg entry inh	x	x	x	x	0%[46.1 µM]	u	3%	-2%[46.1 µM]
RE007 growth inh	-12%	7%	-10%	4%	x	-22%	4%	-3%
LASV entry inh	x	x	x	x	3%[46.1 µM]	u	u	0%
Cruzain Triton	x	x	x	x	-11%	x	2.0%	x
SARS PLpro yeast	-6%	3%	1%	-6%	x	-7%	-7%	0%
NS1 inh	-5%	7%	0%	11%	x	-7%	u	-2%
Cruzain noTriton	x	x	x	x	u	x	-17%	x
2A StopGo	77%[activator]	-1%	-14%	-11%	8%	u	4%	-7%

25	CN(C)CCOC(=O)c1ccc(COc2ccccc2Br)o1
26	OC(c1ccc(Cl)cc1)C(CN1CCOCC1)c1ccccc1 (centres undefined)
27	CN(Cc1cc2ccccc2[nH]c1=O)S(=O)(=O)c1ccccc1
28	O=C(c1ccc(S(=O)(=O)NCC2CCCO2)cc1)N1CCN(c2ccccc2F)CC1 (centres undefined)
29	O=C(CN(C(=O)c1csnn1)c1ccccc1)NCCc1ccccc1
30	O=C(COc1ccc(S(=O)(=O)N2CCOCC2)cc1)N1CCN(c2ccccc2)CC1
31	CCOC(=O)c1cc2c(=O)n3ccccc3nc2n(CC(C)C)c1=NC(=O)C(C)Oc1ccccc1 (centres undefined)
32	CCOC(=O)C(O)(c1ccc(NC(=O)NC2CCCCC2)cc1)C(F)(F)F (centres undefined)
assay / entry	25	26	27	28	29	30	31	32
Marburg entry inh	x	u	25%	x	-19%[46.1 µM]	-16%	-3%[46.1 µM]	u
RE007 growth inh	0%	-15%	8%	-10%	3%	10%	x	-2%
LASV entry inh	x	-5%[46.1 µM]	u	x	20%	-26%	-5%[46.1 µM]	u
Cruzain Triton	x	x	1.7%	x	x	x	-3.0%	-3.2%
SARS PLpro yeast	1%	1%	1%	0%	11%	0%	x	-1%
NS1 inh	-7%	-3%	-4%	-20%	-20%	-17%	x	0%
Cruzain noTriton	x	x	2%	x	x	x	-13%	5%
2A StopGo	8%	-10%	2%	-5%	4%	u	-5%	22%

33	COc1cccc2sc(N(CCCN(C)C)C(=O)c3ccc(S(=O)(=O)N4CCc5ccccc5C4)cc3)nc12
34	COCCn1c(C)nnc1SCC(=O)NNC(=O)c1ccc(Br)cc1
35	CCCc1nc2nc(C)c(NS(=O)(=O)c3ccc(F)cc3)c(=O)n2[nH]1
36	CC(C)N(C(=O)Cn1cc(S(=O)(=O)CC(=O)NCc2ccc(F)cc2)c2ccccc21)C(C)C
37	O=C(CCN1CCN(CC(=O)Nc2ccccc2Cl)CC1)Nc1ccccc1F
38	O=C(CN1CCN(c2ccc(F)cc2)CC1)Nc1ccccc1[N+](=O)[O-]
39	O=C(Nc1cccc(Cl)c1N1CCCC1)c1cccc(-c2cc3ccccc3oc2=O)c1
40	CCOc1ccc(CC(=O)Nc2c(C(=O)c3ccccc3)oc3ccc(Cl)cc23)cc1OCC
assay / entry	33	34	35	36	37	38	39	40
Marburg entry inh	u	26%	8%&-13%[46.1 µM]	-13%	12%[46.1 µM]	-9%	-28%	-5%[46.1 µM]
RE007 growth inh	15%	-9%	-13%	-4%	3%	-7%	-7%	x
LASV entry inh	-4%[46.1 µM]	0%	14%&16%[46.1 µM]	6%	-21%	u	-7%[14.3 µM]	-7%[46.1 µM]
Cruzain Triton	x	x	-0.1%	x	-0.7%	x	-0.3%	0.1%
SARS PLpro yeast	-7%	1%	1%	u	-1%	3%	3%	x
NS1 inh	2%	3%	4%	5%	-11%	x	11%	x
Cruzain noTriton	x	x	-7%	x	4%	x	10µM*	6%
2A StopGo	-7%	8%	10%&-9%	-6%	u	-18%	36%[activator]	-27%

41	Cc1ccc(NC(=O)C2CCCN(c3nnc(C)c4c(C)n(-c5ccccc5)nc34)C2)cc1Cl (centres undefined)
42	CCOC(=O)c1cc(-c2ccccc2)n(CCCC(=O)Nc2cccc(C)c2)c1C
43	O=C(C1CCCCC1)N1CCN(c2ncccn2)CC1
44	O=C(COc1ccc(Cl)cc1)NCc1nnc(SCC(=O)Nc2ccccc2)o1
45	COc1ccc(S(=O)(=O)N(CC(=O)NN=C2CCN(C)CC2)c2cc(Cl)ccc2OC)cc1OC
46	Cc1ccc(S(=O)(=O)N2CCN(CC(=O)NC(=O)NCc3ccccc3)CC2)cc1C
assay / entry	41	42	43	44	45	46
Marburg entry inh	x	x	7%	12%[46.1 µM]	-8%[46.1 µM]	5%
RE007 growth inh	x	x	8%	-2%	2%	0%
LASV entry inh	0%[46.1 µM]	-27%[46.1 µM]	0%	3%	21%[46.1 µM]	22%
Cruzain Triton	-3.8%	-4.6%	-1.8%	3.3%	x	1.1%
SARS PLpro yeast	x	x	-3%	16%	0%	8%
NS1 inh	x	x	-1%	-5%	27%	-8%
Cruzain noTriton	3%	-9%	0%	-1%	x	19%
2A StopGo	-19%	u	-11%	-2%	-6%	-13%
